Screening results from PubChem BioAssay.
LANA-nucl inh: inhibitors of KSHV LANA binding to nucleosomes. FITC-LANA1-23 / chicken nucleosome fluorescence polarization; stronger effect = lower value. z-score (concentration not given with the values). 0.3% of 51,000 active. AID 720717;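 active means both repeat wells score below -2 in polarization z-score versus plate sample wells, excluding overly bright wells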;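 further: 100 nL library stock added to about 30 µL; numbers are from one replicate; some results filed as inactive read as strong as hits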
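Test system: purified chicken nucleosomes with FITC-labelled LANA N-terminal peptide (1-23); Input: 240 nM purified chicken nucleosomes (480 nM peptide binding sites), final; Medium: TEN-BT buffer, pH 7.5; Timing: 10–45 min, room temperature; Technique: fluorescence polarization, 480 nm excitation, 535 nm parallel and perpendicular emission; Replication: duplicates.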
Ab BasE inh: BasE siderophore biosynthesis inhibition. purified BasE, fluorescence polarization binding displacement. inhibition, % (concentration not given with the values). 0.1% of 84,000 active. AID 485350;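 active means both replicates above 25% with normal brightness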;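 further: 0% = negative plate control signal and 100% = positive plate control signal; stock transfer was 100 nL into about 30 µL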
* marks the source's active call; other numbers are inactive results; / = not tested or not shown; & = joins results of further samples. Some of the compounds tested (hit frequency here may not be typical).

The line under a structure holds: LANA-nucl inh	Ab BasE inh
CNCc1cc(C)[nH]n1
 : 0.365	1.4
Cc1c(C(=O)N2CCN(C)CC2)oc2c1C1(CCC2)SCCS1
 : 0.297	1.8
Cn1c(=O)c(=O)n(C)c2cc(S(=O)(=O)NCCOc3ccccc3)ccc21
 : -1.5	0.4
COc1ccc(CN2CC(C(=O)NCc3ccc4c(c3)OCO4)CC2=O)cc1 (stereo unspecified)
 : -0.438	-2.4
COc1ccc(OCC(=O)N2CCc3ccccc3C2)cc1
 : 0.428	0.8
Cc1noc(C)c1/C=C1\N=C(C23CC4CC(CC(C4)C2)C3)OC1=O
 : /	2.2
CCc1cccc(NC(=O)CSc2ncccn2)c1
 : /	0.4
Cc1ccc(-c2noc(CN(C(=O)c3ccc(C)cc3Cl)C(C)C)n2)cc1
 : 0.247	-0.6
N#CCCN(CC1COc2ccccc2O1)C(=O)c1ccccc1 (stereo unspecified)
 : -1.04	-0.1
C=CCN=C1N=C2SC=CN2C(=O)/C1=C\c1ccccc1
 : /	3.2
CNC(=O)NC(=O)C(C)Sc1nnc(Nc2ccc(OC)cc2)s1 (stereo unspecified)
 : /	-0.1
CC(c1ccccc1)n1c(=S)[nH]c2ccccc21 (stereo unspecified)
 : 1.13	0.2
C/C(=N\N1C(C)CCCC1C)c1ccco1 (stereo unspecified)
 : /	2.5
CC(C)N(C(=O)c1cc(C(=O)c2ccccc2)c[nH]1)C(C)C
 : 2.72	/
CCc1c(C)sc(NC(=O)c2ccco2)c1C(=O)NCc1ccccc1
 : 0.497	-5.9
CCn1nc(NC(=O)c2ccco2)c2cc3ccc(C)cc3nc21
 : -1.1	1.1
N=C1/C(=C/c2ccco2)C(=O)N=C2SC(C3CCCCC3)=NN12
 : /	-1.2
CC1CCN(CC(=O)Nc2ccccc2Br)CC1
 : -0.117	2.0
COc1ccc(O)c(C(=O)c2cnc3c(c2)c(=O)[nH]c(=O)n3C)c1
 : /	-0.5
Nc1ccc(CCC(=O)O)cc1
 : -0.259	2.0

Continuation.
The line under a structure holds: LANA-nucl inh	Ab BasE inh
COc1ccccc1/C=C/C=N/n1c(-c2ccncc2)n[nH]c1=S
 : 1.8	-5.7
COC(=O)c1cc(OC)c(OC)cc1NC(=O)Nc1ccccc1OC
 : /	-3.6
CCn1c(Cn2nnc3ccccc3c2=O)nc2cc(S(=O)(=O)N(C)C)ccc21
 : /	2.2
Cc1cccc(N(C)C(=O)C(C)Sc2nc3ncccc3o2)c1 (stereo unspecified)
 : -0.207	0.3
N#CCSc1nc(N2CCOCC2)nc(N2CCOCC2)n1
 : -2.46	0.6
CC1CCC2(CC1)NC(=O)N(Nc1ncnc3sccc13)C2=O (stereo unspecified)
 : /	-0.5
CCCCN=C1SCC(c2ccc(Br)s2)=NN1C
 : /	0.3
C1CCC(N2CCC(N3CCCCC3)CC2)CC1
 : -0.397	-0.9
CCOC(=O)c1cc2oc(C)cc2n1CC(=O)N(C)C1CCCCC1
 : -0.24	1.8
Cc1ccc(-c2nnc(SC(=O)OCc3ccccc3)o2)cc1
 : /	-0.9
C=C(C)COc1ccc2c3c(c(=O)oc2c1OCC(=C)C)CCC3
 : -0.58	4.4
CCOC(=O)c1ccc(CSc2nncn2N)o1
 : -0.732	-10.3
CCCS(=O)c1ccccc1 (stereo unspecified)
 : -0.105	-1.6
Cc1nc(C)c(C(=O)NC2CCSc3ccccc32)s1 (stereo unspecified)
 : /	-0.7
Cc1ccc(SCC(=O)Nc2ccc3c(c2)n(C)c(=O)n3C)cc1
 : -0.471	-0.8
CCOC(=O)CC1=Nn2c(nnc2-c2ccc(OC)cc2)SC1
 : /	0.4
COc1ccc(NS(=O)(=O)c2ccc(-c3cc(C(F)(F)F)no3)s2)cc1
 : /	0.7
O=C(O)[C@H]1/C(=C/CO)O[C@@H]2CC(=O)N21
 : -0.394	/
Cc1ccc(-c2nnc(N3CCN(c4ccccn4)CC3)c3ccccc23)cc1
 : -1.18	-0.6
Cc1nn(CCC#N)c2nc(-c3cccnc3)cc(C(F)(F)F)c12
 : /	0.9

(cont.)
The line under a structure holds: LANA-nucl inh	Ab BasE inh
O=C(CSc1nc2ccccc2[nH]c1=O)NCc1ccco1
 : -1.69	2.8
CCn1c(C(=O)N2CCC(C(=O)N3CCC(Cc4ccccc4)CC3)CC2)cc2sccc21
 : 0.263	-2.3
Cc1ccc(-c2nnc(SC(C)C(=O)c3ccccc3)o2)cc1 (stereo unspecified)
 : /	-1.5
Cc1cccc(N2C(=O)CN(C(C)C)C(=O)C2c2ccc(F)cc2)c1C (stereo unspecified)
 : -0.973	2.9
CN(C)C(=O)C(OC(=O)c1ccc2ccccc2n1)c1ccccc1 (stereo unspecified)
 : /	1.3
CCOC(=O)c1nc[nH]c1C(=O)OC
 : /	3.2
CCOC(=O)c1ccc(Cn2nnc3ccccc3c2=O)cc1
 : -0.14	-0.5
O=C(N1CCCCC1)N1CCN(C(=O)N(c2ccccc2)c2ccccc2)CC1
 : 0.221	1.2
O=S(=O)(Nc1ccc(N2CCCCC2)cc1)c1ccccc1F
 : 0.841	/
COC1=C(N2CCOCC2)C(=O)c2ccccc2C1=O
 : -0.0285	0.1
O=c1nc2n3ccsc3ncc-2s1
 : /	1.5
CCCCC1C(=O)N(c2ccccc2)N(c2ccc(O)cc2)C1=O (stereo unspecified)
 : -0.256&0.576&0.755	-3.9&0.7
COc1ccc(COC(=O)N/C=C/c2ccccc2)cc1
 : -0.479	/
COC(=O)[n+]1ccc(N2CCOCC2)cc1
 : -0.393	3.2
O=C(COc1ccc(Br)cc1)OCc1nnc(-c2ccccc2)o1
 : /	0.7
O=C(Cn1ncc2ccc(Cl)cc21)N1CCc2ccccc2C1
 : 0.658	-2.1
Cc1noc(C)c1COC(=O)CCc1nc2ccccc2s1
 : /	1.6
CCCn1c2ccc(Cl)cc2c2nc3ccccc3nc21
 : -0.0075	-1.9
Cc1ccc(-n2cnc3ccccc3c2=O)cc1Cl
 : 0.672	0.8
O=c1[nH]c2ccc(S(=O)(=O)NCc3ccco3)cc2[nH]1
 : /	0.1

New compounds follow.
The line under a structure holds: LANA-nucl inh	Ab BasE inh
O=C1CSC(=S)N1C1CCS(=O)(=O)C1 (stereo unspecified)
 : -0.649	-2.1
COc1cc(CNC(C)(C)C)cc(Cl)c1OCc1cccnc1
 : -1.46	-1.4
CC(C(=O)Nc1ncccn1)(C(F)(F)F)C(F)(F)F
 : 0.127	1.8
Cc1cc(=O)[nH]c(-n2ncc(C#N)c2N)n1
 : /	1.7
CCn1c(CNc2cccc(Cl)c2)nnc1SCc1ccccc1
 : 0.796	2.5
CN(Cc1ccccc1)C(=O)CN1CCN(S(=O)(=O)c2ccccc2F)CC1
 : /	3.9
COc1ccc2c(C)c(CC(=O)N3CCCC3)c(=O)oc2c1OC
 : -0.191	-0.5
Cn1c(=O)cc2c3c(cccc31)C(=O)c1ccccc1-2
 : /	9.6
Cc1sc(NC(=O)c2ccco2)c(CN2CCCCC2)c1C
 : /	2.7
N#Cc1c(-c2cccs2)nc(SCC(=O)c2ccc(Br)cc2)[nH]c1=O
 : /	-2.7
CCCCC(=O)Nc1nc2ccccc2s1
 : -0.272	1.1
COc1ccccc1CNC(=O)CNC1CCCCC1
 : /	0.5
O=C(OCc1ccc2nonc2c1)c1cc(-c2ccccc2)nc2ccccc12
 : -0.125	3.1
O=S(=O)(NC1CCCC1)c1ccc(Br)cc1
 : -0.131	1.2
CC(=O)Nc1ccc(S(=O)(=O)NC2=NCN(C3CCN(Cc4ccccc4)CC3)CN2)cc1
 : -1.08	-0.2
CN(C)S(=O)(=O)c1ccc(-c2n[nH]c(=S)n2-c2ccc(Cl)cc2)cc1
 : 1.29	-2.6
O=S(=O)(/N=C(/Nc1cc(N2CCOCC2)ncn1)c1ccc(F)cc1)c1ccccc1
 : 0.576	-1.6
C=CCN1C(=O)c2ccccc2N2C(=O)CCC12C(=O)NCc1ccccc1 (stereo unspecified)
 : /	1.7
CCOc1ccc(-c2ccc(NS(=O)(=O)c3ccccc3)cc2)nn1
 : -0.502	-0.3
CCn1c(Cn2nnc(-c3ccccc3)n2)nc2cc(S(=O)(=O)N(C)C)ccc21
 : /	3.1

(next part)
The line under a structure holds: LANA-nucl inh	Ab BasE inh
O=C(CC(NC1CCCC1)C(=O)O)Nc1ccc(Oc2ccccc2)cc1 (stereo unspecified)
 : -1	-0.6
CCc1ccc(C(=O)C(C)Sc2nnc(-c3ccccc3)o2)cc1 (stereo unspecified)
 : /	-0.2
O=C(NCCc1ccccc1F)C1CC(=O)N(c2ccccc2)C1 (stereo unspecified)
 : -0.578	1.0
Cc1csc2sc(C(=O)c3ccc(Cl)cc3)c(C)c12
 : /	0.2
COC(=O)c1ccccc1NC(=O)Cn1cc(S(=O)(=O)N2CCC(C)CC2)c2ccccc2c1=O
 : 0.095	1.5
O=c1[nH]c2ccc(Oc3ccc4[nH]c(=O)c(=O)[nH]c4c3)cc2[nH]c1=O
 : 0.404	5.3
Cc1ccc(NC(=S)N2CCCN(c3ncc(C(F)(F)F)cc3Cl)CC2)c(C)c1
 : /	3.9
CN1C(=O)C2N=NN(c3ccccc3)C2C1=O (stereo unspecified)
 : -0.029	2.6
COc1ccccc1Nc1ncccc1C(=O)Nc1ccnn1C(C)C
 : /	1.7
O=C(CSc1nc2sc3c(c2c(=O)[nH]1)CCCC3)N1CCOCC1
 : /	0.0
Cc1ccccc1NC(=O)COC(=O)c1cccc(S(=O)(=O)N2CCCC2)c1
 : /	-3.3
Nc1nc(-c2ccccc2)c(N=Nc2ccc3c(c2)OCO3)s1
 : /	-3.5
O=C(NCCCN1CCCC1)C1CCN(c2nc3ccccc3n3cccc23)CC1
 : 0.046	-1.6
NS(=O)(=O)c1ccc(Cl)cc1F
 : /	-0.1
CC(C(=O)NCCCN1CCN(C2CCCCC2)CC1)n1ncn2cccc2c1=O (stereo unspecified)
 : -0.753	1.1
Cc1cc(C)cc(N2C(=O)CCN(Cc3ccccc3)C2=O)c1
 : -0.925	/
Cn1c(=O)n(C)c2cc(Br)c(N)cc21
 : -0.796	1.6
CCC1=NN(C(=O)c2ccccc2O)C(O)(c2ccccc2)C1 (stereo unspecified)
 : 1.35	-0.2
C=CCNC(=O)CSc1ncc2c(n1)-c1c(csc1SC)CC2
 : /	0.9
CSC(=NC#N)N1CCN(C(=NC#N)SC)CC1
 : 0.0305	3.2

Next section; the last three above are carried over.
The line under a structure holds: LANA-nucl inh	Ab BasE inh
CCC1=NN(C(=O)c2ccccc2O)C(O)(c2ccccc2)C1 (stereo unspecified)
 : 1.35	-0.2
C=CCNC(=O)CSc1ncc2c(n1)-c1c(csc1SC)CC2
 : /	0.9
CSC(=NC#N)N1CCN(C(=NC#N)SC)CC1
 : 0.0305	3.2
CON(C)C(=O)c1ccc(C(C)(C)C)cc1
 : -0.678	2.9
Cc1c(Cl)cnc(NC(=O)COC(=O)C2CC2)c1Cl
 : /	-0.7
O=c1[nH]nc(SCc2nc3ccccc3s2)n1C1CC1
 : /	-0.1
Cc1c(C)c(C)c(S(=O)(=O)N2CC(C)CC(C)C2)c(C)c1C (stereo unspecified)
 : /	1.6
O=C(OCc1cc(Cl)cc2c1OCOC2)c1cccnc1Cl
 : /	6.4
O=C(NCCc1ccc(Cl)cc1)c1cc(=O)[nH]c(=O)[nH]1
 : /	2.1
N#Cc1cc(C#N)c(SCC(=O)N2CCNC2=O)nc1N
 : /	0.3
Cc1ccc(-c2nc(C(=O)Nc3ccccn3)c3n2CCCCC3)cc1
 : -1.45	0.6
O=C1CC(Nc2ccccc2)C(=O)N1c1cccc(C(F)(F)F)c1 (stereo unspecified)
 : /	-2.5
CCOC(=O)c1ccc(NC(=S)Nc2cccc(N)n2)cc1
 : -0.549	2.2
O=C(O)c1cc2ccccc2[nH]1
 : -0.409	-2.9
O=S(=O)(c1ccc2ccccc2c1)N1CCN(Cn2[nH]c(-c3cccs3)nc2=S)CC1
 : /	0.2
NC1CCN(C(=O)C2CC2)CC1
 : 2.54	-2.7
CC(C)c1ccc(N2CC(C)(C)C2=O)cc1
 : -1.16	/
FC(F)(F)c1nnc(-c2ccccc2)o1
 : 0.472	-2.2
NC(=O)c1ccccc1OCC(=O)N1CCOCC1
 : /	1.8
Cc1cc(C)nc(S/C=C/C(=O)c2ccc(Cl)cc2)n1
 : /	1.2
CCOC(=O)CCSc1n[nH]c(=S)s1
 : /	-0.2
CS(=O)(=O)N(CCC#N)Cc1ccc(/C=C2\C(=O)N(c3ccccc3)c3ccccc32)o1
 : /	-1.0
O=S(=O)(c1ccc2ccccc2c1)N1CCN(c2ncnc3sccc23)CC1
 : /	-0.8

Arranged by length of the SMILES (falling): three of the compounds above
The line under a structure holds: LANA-nucl inh	Ab BasE inh
Cc1ccc(SCC(=O)Nc2ccc3c(c2)n(C)c(=O)n3C)cc1
 : -0.471	-0.8
CCCCN=C1SCC(c2ccc(Br)s2)=NN1C
 : /	0.3
CCOC(=O)CCSc1n[nH]c(=S)s1
 : /	-0.2

Later entries.
The line under a structure holds: LANA-nucl inh	Ab BasE inh
CO[C@@]1(NC(=O)C(C(=O)O)c2ccc(O)cc2)C(=O)N2C(C(=O)O)=C(CSc3nnnn3C)CO[C@@H]21 (stereo partly specified)
 : 0.034&0.383&0.443	1.7&-3.7
Cc1ccc(N2C(=O)c3ccccc3C2(O)c2ncc[nH]2)cc1 (stereo unspecified)
 : -0.97	1.7
O=C(CSC1=NCCS1)NC1CCCC1
 : /	0.6
Cc1[nH]c2ccccc2c1-c1ncc(C(F)(F)F)cc1Cl
 : -0.899	/
COC(=O)c1cccc(N2C(=O)C3C4C=CC(C)(O4)C3C2=O)c1 (stereo unspecified)
 : 0.572	1.4
